Screening results (PubChem BioAssay)
HPGD block = inhibitors of human 15-hydroxyprostaglandin dehydrogenase (HPGD); P15428; purified HPGD, NADH fluorescence kinetic, PGE2 substrate; Potency, µM, for the others: at the highest dose activity change, negative = inhibition, actives largely listed as inhibitors; 150,000 tested, 4.3% active; AID 894; active = well fitted inhibition curve with a large enough effect (not every such curve was filed as active); inconclusive = small, poorly fitted or top-dose-only effect, or another doubt; inactive = no such curve, though single readings can be large or run the other way;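 further: top concentration of the series not given in the record; plate controls included wells without enzyme; inactives centre near -10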
Target sequence (P15428 whole entry, looked up): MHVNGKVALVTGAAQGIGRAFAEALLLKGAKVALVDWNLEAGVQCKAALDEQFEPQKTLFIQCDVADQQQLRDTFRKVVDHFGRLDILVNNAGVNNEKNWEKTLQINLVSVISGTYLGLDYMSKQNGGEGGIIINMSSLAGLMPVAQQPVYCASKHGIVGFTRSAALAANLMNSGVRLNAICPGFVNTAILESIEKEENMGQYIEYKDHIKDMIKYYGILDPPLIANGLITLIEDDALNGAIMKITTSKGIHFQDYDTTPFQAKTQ
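20 nM HPGD preincubated 15 min at room temperature with compound in 50 mM Tris-HCl pH 8, 0.01% Tween 20. Started with 1 mM NAD+ and 30 uM prostaglandin E2; NADH fluorescence (360/450 nm) read 5 times over 30-s intervals, last minus first.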
Starred values were filed as active, the others as inactive; ? = inconclusive. On the % scale 0 is the no-effect control and ±100 the full control effect; potency means the concentration at half of the fitted maximal effect. Only part of the results is shown; count on the stated rates, not on these rows.

SMILES	HPGD block
O=C(NCc1cccs1)c1ccc(Cl)s1	16µM*
CC1=C(C(=O)NCCN2CCN(C)CC2)C2(CCC(C)CC2)OC1=O (stereo unspecified)	-4%
O=C(CN1C(=O)CC(c2ccco2)Sc2ccccc21)Nc1ccc2c(c1)OCCO2 (stereo unspecified)	-18%
CCOC(=O)c1[nH]c2ccc(F)cc2c1NC(=O)C(C)N1CCc2cc(OC)c(OC)cc2C1 (stereo unspecified)	?
N#Cc1c(-c2ccccc2)nc2n(c1=O)CCS2	-11%
CC(C)C1=C2OC(N)=C(C#N)C(C#N)=C2C(C)CC1 (stereo unspecified)	?
CN1C(=O)C(Cl)(Cl)C(=O)c2ccccc21	22µM*
CCC(=NCc1ccco1)c1c(C(F)(F)F)[nH]n(-c2nc3ccccc3s2)c1=O	-12%
Cc1[nH]c2ccccc2c1Cc1n[nH]c(=S)n1C	35µM*
CCOC(=O)CSc1nc(C(C)C)nc2ccccc12	-5%
O=C(CSc1nnnn1C1CCCC1)Nc1cccc(NC(=O)c2ccco2)c1	-6%
CCCCCN1CSC(=S)N(Cc2ccccc2)C1	-7%
COc1cc(OC)cc(C(=O)N2CCC(n3c(C)nc4cc(F)ccc43)CC2)c1	-14%
CCCCCc1nnc(NC(=O)OCCC)s1	-15%
CCOc1ccc(N(CC(=O)Nc2ccc(C)c(C)c2)S(=O)(=O)c2c(C)noc2C)cc1	-6%
O=C(NCc1ccccc1Cl)c1ccc(-c2ccccc2)cc1	-13%
CCNC(=S)Nc1scc(-c2ccccc2)c1C(=O)OCC	-26%
Cc1nnc(SCC(=O)Nc2sccc2C(N)=O)n1Cc1ccccc1	-16%
CC(=O)Nc1ccc(S(=O)(=O)Nc2cc(C)c(-n3nc4ccccc4n3)cc2O)cc1	-12%
COc1ccccc1NC(=O)C(CC(C)C)NC(=O)C1CCCCC1 (stereo unspecified)	-16%
COc1cc(NC(=O)C2CCN(S(=O)(=O)c3cccc4nonc34)CC2)cc(OC)c1	-8%
CN(C)c1ccccc1CN1CCCN(Cc2ccccc2N(C)C)C1c1ccncc1	-9%
CC(C)CCNC(=O)C1CCC(=O)N1C(C)C (stereo unspecified)	-2%
Cc1cccc(C)c1NC(=O)CCCSc1nnnn1C	-8%
COCCn1c(Sc2nc(C)cs2)nc2c1c(=O)[nH]c(=O)n2C	-7%

More results
SMILES	HPGD block
CCOc1cc(/C=C(/C#N)C(=O)Nc2ccc(O)cc2)cc(Br)c1O	?
CCOC(=O)C1=C(C)C(c2ccccc2OC)NC(=S)N1 (stereo unspecified)	-10%
O=C(Nc1ccccc1)c1ccc(S(=O)(=O)N(CCO)CCO)cc1	-8%
CCCCNc1c(N2CCN(C(=O)OCC)CC2)c(=O)c1=O	-8%
Nc1nnc(Cc2ccccc2)s1	-9%
Cc1cc(C(=O)COc2ccccc2[N+](=O)[O-])c(C)n1-c1cccc(S(=O)(=O)N2CCOCC2)c1	-16%
Cc1nn(CC(=O)N2N=C(C(F)F)CC2(O)C(F)F)c(C)c1[N+](=O)[O-] (stereo unspecified)	1%
COc1ccc(NC(=O)N2CCCC3(CCN(C(=O)c4ccc(OC)cc4)CC3)C2)cc1	-3%
COc1cccc(S(=O)(=O)NCc2ccc3c(c2)OCO3)c1	-4%
O=C(NCC1CCCO1)c1ccc(/C=N/O)nc1 (stereo unspecified)	-9%
CCOC(=O)C(CC(=O)O)N1CCCCC1 (stereo unspecified)	0%
Cc1[nH]c2ccccc2c1C(=O)CSc1nc2ccccc2c(=O)n1CCCN1CCOCC1	-1%
O=C1CCCC2=C1C(c1ccsc1)CC(=O)N2c1ccccc1 (stereo unspecified)	-6%
O=C(Nc1ccc([N+](=O)[O-])cc1)C1CC1(c1ccccc1)c1ccccc1 (stereo unspecified)	-2%
CCCn1c(=NC(C)=O)c(C(=O)OCC)cc2c(=O)n3ccccc3nc21	?
CC(C)COC(=O)C1C2C=CC3(CN(C4CCCC4)C(=O)C13)O2 (stereo unspecified)	-4%
COc1ccccc1NC(=O)c1sc2nc(-c3ccco3)ccc2c1N	-19%
CCOC(=O)c1c(C)[nH]c(C(=O)CN2C(=O)NC(C)(c3ccc4ccccc4c3)C2=O)c1C (stereo unspecified)	-9%
Cc1nc2sc3c(c2c(=O)o1)CCC3	20µM*
CCn1c(SCc2nc3ccccc3[nH]2)nnc1-c1cccnc1	-15%
CCOC(=O)C1CCCN(C(=O)C2CCN(c3nnc(-n4cccc4)s3)CC2)C1 (stereo unspecified)	-23%
Cc1cc(C(=O)Nc2cccc(O)c2)co1	-27%
O=C(Nc1cccc(O)c1)c1cccc(S(=O)(=O)N2CCCC2)c1	-7%
O=C(CSCCO)Nc1cccc([N+](=O)[O-])c1	-1%
Cc1ccc(-c2cc(C(=O)Nc3cccnc3)c3ccccc3n2)o1	?

Next part:
SMILES	HPGD block
CCCSc1nc(C)nc2c1c(=O)n(C)c(=O)n2C	-15%
Cc1ccc(S(=O)(=O)c2ccc(C)cc2)cc1	-19%
O=C(CSCc1nc2ccccc2[nH]1)N1CCN(c2cccc(Cl)c2)CC1	-1%
CC(C)Oc1ccc(N2CC(C(=O)Nc3ccc4c(c3)OCO4)CC2=O)cc1 (stereo unspecified)	-13%
CCC1(C)Cc2c(sc3nnn(CC(=O)Nc4ccccc4C)c(=O)c23)CO1 (stereo unspecified)	-5%
Oc1ccccc1CNc1nc2ccccc2n1CCN1CCCCC1	-24%
N#C/C(=N\Nc1ccc(Cl)cc1)C(=O)c1ccccc1	-24%
Cc1ccc(NC(=S)NNc2ncc(C(F)(F)F)cc2Cl)c(C)c1	-16%
CCC(=O)Nc1cc(C)c(NC(=O)CCc2ccccc2)cn1	-11%
Nc1cc(=O)[nH]c(SCC(=O)Nc2cccc(Cl)c2)n1	-5%
CCC(SCC(=O)OC)C(=O)Nc1nnc(C(C)C)s1 (stereo unspecified)	0%
Cc1cc(NC(=O)CS(=O)(=O)c2cn(Cc3cccc(F)c3)c3ccccc23)no1	-13%
COc1ccc(OC)c(S(=O)(=O)Nc2ccc(OCC(=O)O)cc2)c1	-8%
CCN(C(=O)CN1CCCc2ccccc21)c1c(N)n(Cc2ccccc2)c(=O)[nH]c1=O	-2%
Cn1c(CCN2CCCCC2)nc2cc(NC(=O)NC3CCCCC3)ccc21	2%
C=CCn1cc(Cl)c(=O)n(CC=C)c1=O	-11%
N=c1c(C(=O)NCc2ccccc2)cc2c(=O)n3ccccc3nc2n1CCCN1CCOCC1	?
O=C1CCCc2c1[nH]c1c(Br)cccc21	-29%
N#Cc1nc(-c2ccco2)oc1NCc1ccco1	?
Cc1ccc(S(=O)(=O)N2CCN(S(=O)(=O)N(C)C)CC2)cc1	-3%
COC(=O)CCCC1=CC2=CC(=O)C(C)(OC(=O)c3cccs3)C(=O)C2=CN1CC(C)C (stereo unspecified)	-1%
COCC(=O)N1CCC2(CCN(Cc3ccc(C#N)cc3)CC2)CC1	-2%
COC(=O)CSC1=C(C#N)C(c2ccccc2)CC(=O)N1 (stereo unspecified)	-19%
CC(C)C(=O)Nc1ccc2oc(-c3cc(F)c(F)cc3Cl)nc2c1	-5%
Cn1c(-c2ccc[nH]c2=O)nc2cc(Cl)ccc21	?

Remaining list, next part
SMILES	HPGD block
CCN(Cc1cc2cc(C)ccc2[nH]c1=O)S(=O)(=O)c1ccccc1	-6%
COc1cc(NC(=O)COC(=O)CNS(=O)(=O)c2ccc(F)c(F)c2F)cc(OC)c1	-19%
CC/C=C\C/C=C\C/C=C\C/C=C\C/C=C\C/C=C\CCC(=O)NCCO	-6%
O=C(CN1CCN(c2ncccn2)CC1)N1CCc2ccccc21	-7%
O=C1NC(c2ccc3c(c2)OCO3)Nc2ccccc21 (stereo unspecified)	?
Cc1nnsc1Sc1cccc(C(F)(F)F)c1	-10%
CCCc1cc(=O)[nH]c(SCC(=O)N2CCN(S(=O)(=O)c3ccc(Cl)cc3)CC2)n1	-11%
N#Cc1c(/N=C/c2cccs2)sc2c1CCC2	20µM*
COc1ccccc1N(C(C)=O)c1nc(C)cc(C)c1C#N	-4%
Cc1ccccc1OCc1n[nH]c(=S)n1Cc1ccccc1	14µM*
CN1CC(c2ccc(C#N)cc2)C2(COc3ccccc3C2=O)C12C(=O)Nc1ccccc12 (stereo unspecified)	-8%
CC(C)Cn1cnc2c(c(-c3ccccc3)c(-c3ccccc3)n2Cc2ccco2)c1=N	4%
C=CCNS(=O)(=O)c1ccc(OCC(=O)OCC)cc1	-7%
CCn1c(SCc2ccccc2Cl)nc2ccccc21	-13%
CC1(C(=O)NC2CCCCCC2)CCC(=O)N1Cc1ccc2c(c1)OCO2 (stereo unspecified)	-4%
CCn1c(SCC(=O)NCC2CCCO2)nc2c(c1=O)SC(C)C2 (stereo unspecified)	-5%
CCOC(=O)c1c(C)n(CCO)c2ccc(O)cc12	-6%
Cc1ccc2[nH]cc(CCNC(=O)c3cccnc3)c2c1	-9%
Cc1cccc(N2C(=O)CN=C2Nc2nc(C)cc(C)n2)c1	4%
O=C1C(=O)N(CNc2ccccn2)c2ccccc21	-17%
O=C(COc1cccc2ccccc12)NNC(=O)c1cnccn1	-8%
O=C(Cc1cccs1)NC1C(=O)N2C(C(=O)[O-])=C(C[n+]3ccccc3)CSC12 (stereo unspecified)	32µM*
Cc1ccc(-n2nnnc2SCC(=O)c2c(N)n(CC(C)C)c(=O)n(C)c2=O)cc1	-8%
C/C(=N\NC(=O)C1CC1)c1cccnc1	1%
S=C1c2ccccc2CN1c1ccccc1	-12%

(continued)
SMILES	HPGD block
CC[n+]1c(C)sc2c(C)cc(C)cc21	-1%
Cc1noc(C)c1C(=O)Nc1nc(C23CC4CC(CC(C4)C2)C3)cs1	-18%
Brc1ccc2cccnc2c1	-2%
COC(=O)c1nn(-c2ccccc2)c(Sc2ccc(Cl)cc2)c1/C=N/O	-12%
CCOC(=O)c1c(-c2ccc(C)s2)csc1NC(=O)c1ccco1	?
Cc1onc(-c2ccccc2)c1C(=O)Nc1cccc2nsnc12	?
NS(=O)(=O)c1ccc(CNC(=O)/C=C/c2c(Cl)cccc2Cl)cc1	-11%
CCOC(=O)c1nn(-c2ccc(OCC)cc2)c2nc(-c3cccc(OC)c3)c(C#N)c(=O)n12	?
Cc1ccccc1NC(=S)N(CCCN1CCCCC1)Cc1ccco1	-4%
C/C(=N\OC(=O)c1ccc(Cl)c(Cl)c1)c1sc(C)nc1C	-6%
CC(Oc1cccc(F)c1)C(=O)/C=C\N(C)C (stereo unspecified)	?
Cc1ccnc(NC(=O)CCC(=O)N(CC(=O)NC2CCCCC2)Cc2ccc3c(c2)OCO3)c1	1%
COc1ccc2c(C)cc(=O)[nH]c2c1	-15%
COc1c(C)cccc1C(=O)Nc1ccc(N2CCOCC2)c(Cl)c1	-27%
O=C(CCCN1C(=O)CCC1=O)Nc1ccc2c(c1)OCO2	4%
Cn1nc(C(F)(F)F)c2cc(C(=O)NC3CC3)sc21	-16%
CC1Cc2ccccc2N1C(=O)Cn1nc(C(=O)O)c2ccccc2c1=O (stereo unspecified)	-19%
Cc1nc2c(Cl)cc(Cl)cc2[nH]1	-7%
CC(=O)Nc1ccc(NC(=O)CC2Nc3cccc4cccc(c34)NC2=O)cc1 (stereo unspecified)	-15%
Cc1ccc(S(=O)(=O)NNC(=O)C2CCN(S(=O)(=O)c3ccc(C)cc3)CC2)cc1	-2%
COc1ccccc1-n1cnnc1SCC(=O)c1cc(C)n(Cc2cccs2)c1C	-19%
CC(C)NCC(O)Cn1c2c(c3ccccc31)CCc1c-2cnn1-c1ccccc1 (stereo unspecified)	?
COc1ccc(C(=O)NCc2ccccc2OC)c(OC)c1	28µM*
COC(CNC(=O)c1ccc(N2CCC3(CC2)OCCO3)c([N+](=O)[O-])c1)OC	-16%
O=C(CSCCc1ccccn1)Nc1cccnc1Cl	-13%
CC(C)CC(=O)NC(=S)Nc1nc(-c2ccc(Cl)cc2)cs1	-5%
Cc1cc(NC(=O)c2cc(-c3ccco3)on2)nn1Cc1ccc(Cl)cc1	-8%
CCOC(=O)C1CCN(C(=O)Cc2cccc3ccccc23)CC1	-6%

By substructure: the entries above with two or more sulfur atoms
SMILES	HPGD block
O=C(NCc1cccs1)c1ccc(Cl)s1	16µM*
CCCCCN1CSC(=S)N(Cc2ccccc2)C1	-7%
CCNC(=S)Nc1scc(-c2ccccc2)c1C(=O)OCC	-26%
Cc1nnc(SCC(=O)Nc2sccc2C(N)=O)n1Cc1ccccc1	-16%
COCCn1c(Sc2nc(C)cs2)nc2c1c(=O)[nH]c(=O)n2C	-7%
CCC(SCC(=O)OC)C(=O)Nc1nnc(C(C)C)s1 (stereo unspecified)	0%
Cc1ccc(S(=O)(=O)N2CCN(S(=O)(=O)N(C)C)CC2)cc1	-3%
Cc1nnsc1Sc1cccc(C(F)(F)F)c1	-10%
CCCc1cc(=O)[nH]c(SCC(=O)N2CCN(S(=O)(=O)c3ccc(Cl)cc3)CC2)n1	-11%
N#Cc1c(/N=C/c2cccs2)sc2c1CCC2	20µM*
CCn1c(SCC(=O)NCC2CCCO2)nc2c(c1=O)SC(C)C2 (stereo unspecified)	-5%
O=C(Cc1cccs1)NC1C(=O)N2C(C(=O)[O-])=C(C[n+]3ccccc3)CSC12 (stereo unspecified)	32µM*
CCOC(=O)c1c(-c2ccc(C)s2)csc1NC(=O)c1ccco1	?
Cc1ccc(S(=O)(=O)NNC(=O)C2CCN(S(=O)(=O)c3ccc(C)cc3)CC2)cc1	-2%
COc1ccccc1-n1cnnc1SCC(=O)c1cc(C)n(Cc2cccs2)c1C	-19%
CC(C)CC(=O)NC(=S)Nc1nc(-c2ccc(Cl)cc2)cs1	-5%
